Six1-Eya2 blk = inhibitors of human Six1/Eya2 interaction; Q15475+O00167; AlphaScreen GST-Six1/His-Eya2 binding, biochemical; stronger effect = lower value; control for the full effect not named in the record; activity change, % (no concentration beside the values); 360,000 tested, 0.56% active; AID 651725; in the data active = activity change below about -65%; inconclusive = about -30% to -65%; inactive = above about -30%; further: on the % scale 0 is the no-effect control and ±100 the full control effect; compound concentration not given in the record
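AlphaScreen with GST-Six1 and His-Eya2 (5X mix: 250 nM and 500 nM), glutathione donor and nickel acceptor beads; buffer 50 mM Tris pH 8.0, 300 mM NaCl, 1 mM TCEP; 1 h at 37 C in the dark.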
TRPML1 blocker = human mucolipin-1 channel inhibition. Q9GZU1. TRPML1-inducible cells, Ca2+ dye fluorescence, FDSS; stronger effect = lower value; inhibition of EC80 agonist-evoked calcium signal. activity change, negative = inhibition, % (concentration not given with the values). 390,000 tested, 0.02% active. AID 624415; in the data active means activity change below about -50%; inconclusive means about -30% to -50%; inactive means above about -30%;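 further: stimulus is agonist 54-4 at its EC80 concentration; on the % scale 0 is the no-effect control and ±100 the full control effect; compound concentration not given in the record; the text of the record puts the active cut at -80%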
Target sequence (Q9GZU1 whole entry, looked up): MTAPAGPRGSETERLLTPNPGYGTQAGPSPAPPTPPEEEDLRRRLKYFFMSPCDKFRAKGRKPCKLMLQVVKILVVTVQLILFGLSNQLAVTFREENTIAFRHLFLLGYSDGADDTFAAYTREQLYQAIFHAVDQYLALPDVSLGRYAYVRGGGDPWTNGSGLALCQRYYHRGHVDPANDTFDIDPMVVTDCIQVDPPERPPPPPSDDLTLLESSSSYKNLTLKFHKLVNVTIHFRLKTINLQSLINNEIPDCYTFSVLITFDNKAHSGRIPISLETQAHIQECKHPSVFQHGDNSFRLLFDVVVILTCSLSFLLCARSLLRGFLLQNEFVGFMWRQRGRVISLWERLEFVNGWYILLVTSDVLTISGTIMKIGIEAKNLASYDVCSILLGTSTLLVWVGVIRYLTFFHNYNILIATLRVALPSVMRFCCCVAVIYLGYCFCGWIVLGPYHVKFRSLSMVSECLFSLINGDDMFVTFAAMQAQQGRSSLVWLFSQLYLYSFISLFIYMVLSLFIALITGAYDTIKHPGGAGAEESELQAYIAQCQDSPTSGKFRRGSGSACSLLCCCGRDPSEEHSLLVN
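Calcium fluorescence in TRPML1-DL cells induced overnight with Tet: a 110 s read after compound pin addition, then a 110 s antagonist read after challenge with 54-4 at 4 uM final (EC80).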
PINK1 expr mod = changes PINK1 expression; PINK1 immunofluorescence, high-content cytometry, 24 h; Potency, µM (highest dose often 76.6 µM), for inactives: at the highest dose activation (PINK1 increase), hits mostly activators; 410,000 tested, 0.2% active; active = well fitted activation curve with a large enough effect; inconclusive = small, poorly fitted or top-dose-only effect; inactive = flat fitted curve, though single readings scatter; cell line not stated here;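 further: potency means the concentration at half of the fitted maximal effect; % of control where 0% means no effect; nearly all actives have a fitted effect of over 65% in size; a mitochondrial uncoupler was the plate control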
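PINK1 protein level read as immunofluorescence by microplate cytometer in a fixed, stained stable cell line after 24 h exposure to five compound concentrations, with CCCP as control.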
TRPML1 ag = activates the human TRPML1 channel; Q9GZU1; TRPML1-expressing cells, Ca2+ dye fluorescence, FDSS; host cell line not named in the record; reference of the full effect not given here; activation, % (no concentration beside the values); 410,000 tested, 0.12% active; in the data active = activation above about 50%; inconclusive = about 30% to 50%; inactive = below about 30%; further: 0% is about no effect; the text of the record puts the active cut at 80%
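TRPML1-DL cells, Tet-induced overnight (~16 h, 37 degrees C), loaded 45-90 min at room temperature with Ca8 no-wash calcium dye plus quencher. FDSS fluorescence: 10 s baseline, compound pin-transfer, 110 s agonist read, then EC80 54-4 (4uM final) and 110 s antagonist read.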
D2 PAM = potentiates the human D2 dopamine receptor allosterically; 360,000 tested, 0.23% active; P14416; potentiation, % (test concentration not listed); DiscoveRx D2 beta-arrestin cells, luminescence, 90 min; 100% = 57 uM dopamine signal; AID 624464; active = potentiation of 50% or more; inconclusive = 30% to 50%; inactive = 30% or less;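 further: compound concentration not given in the record; tested on top of an EC20 dose of dopamine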
Target sequence (P14416 whole entry, looked up): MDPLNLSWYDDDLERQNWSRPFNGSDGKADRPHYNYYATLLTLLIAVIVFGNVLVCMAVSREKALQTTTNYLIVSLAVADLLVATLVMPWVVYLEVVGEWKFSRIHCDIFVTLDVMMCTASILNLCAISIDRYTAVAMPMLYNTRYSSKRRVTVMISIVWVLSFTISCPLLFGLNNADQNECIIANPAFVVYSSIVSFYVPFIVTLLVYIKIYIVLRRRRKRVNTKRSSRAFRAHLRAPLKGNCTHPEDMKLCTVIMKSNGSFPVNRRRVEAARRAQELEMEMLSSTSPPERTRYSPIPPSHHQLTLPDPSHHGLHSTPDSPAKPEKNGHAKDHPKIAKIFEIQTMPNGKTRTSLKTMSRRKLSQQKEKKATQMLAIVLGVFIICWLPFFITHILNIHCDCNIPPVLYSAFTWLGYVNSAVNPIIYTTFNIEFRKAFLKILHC
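D2 cells co-treated with compound plus 50 nM dopamine (EC20) for 90 min at 37 deg C to detect potentiation. Beta-arrestin recruitment was read as enzyme-fragment luminescence after 1 h at ambient temperature. Full response was set by 57 uM dopamine.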
D2 ag = agonists of human D2 dopamine receptor (beta-arrestin); P14416; DiscoveRx PathHunter D2 beta-arrestin, luminescence, 90 min; 100% = 57 uM dopamine signal; activation, % (concentration not given with the values); 360,000 tested, 0.084% active; in the data active = activation above about 40%; inconclusive = about 15% to 40%; inactive = below about 15%; further: compound concentration not given in the record; the text of the record calls up to 30% inactive
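DiscoveRx PathHunter D2 beta-arrestin cells (2,100/well) attached overnight, then compound-stimulated 90 min at 37 C in HBSS/10 mM HEPES/0.1% Tween-20 buffer; beta-galactosidase complementation read by luminescence after 1 h at ambient temperature. Dopamine 57 uM final (EC100) as control.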
The depositor's hits bear a star; ? = inconclusive; nt = not tested or not shown; [ ] = dose if it differs, or a comment.

Below each SMILES – Six1-Eya2 blk | TRPML1 blocker | PINK1 expr mod | TRPML1 ag | D2 PAM | D2 ag
1) CCC(C)NC(=O)C1c2ccccc2C(=O)N(c2ccc(OC)cc2)C1c1ccc(OC)cc1 (stereo unspecified)
 : 8 | 5 | 5.6% | 1.9 | -19 | -4.6
2) CCC(=O)Nc1cccc(NC(=S)NC(=O)c2ccc(Cl)cc2Cl)c1
 : 3 | -10 | 1.6% | 1.8 | -16 | -3.5
3) Cc1cc(C(=O)N/N=C/c2cccnc2)c2ccccc2n1
 : 0 | 28 | 21% | -1.2 | -5 | -1.8
4) COc1ccc(C)cc1N(C(=O)c1ccco1)C(C(=O)NC1CCCC1)c1cc(OC)c(OC)c(OC)c1 (stereo unspecified)
 : 2 | 6 | 1.0% | -0.6 | -6 | 0.0
5) CSc1nc2ccccc2n1C(=O)NC1CCCCC1
 : -1 | -7 | -0.2% | -0.6 | -4 | -0.3
6) COc1ccc(CC(=O)Nc2ccc(/C(C)=N/NC(=O)c3ccc(OC)cc3OC)cc2)cc1
 : 9 | -11 | 0.0% | 0.7 | -6 | 0.8
7) Cc1c2cc[n+](CCN3CCCCC3)cc2c(C)c2c1[nH]c1ccc(O)cc12
 : ? | -15 | 1.8% | 0.0 | -26 | -0.6
8) CC1CN(/C(=N\S(=O)(=O)c2ccccc2)c2ccccc2)CC(C)O1 (stereo unspecified)
 : -1 | -13 | -1.3% | -0.7 | -10 | -4.4
9) CN1C(=O)c2ccc(NC(=O)c3c(F)c(F)c(F)c(F)c3F)cc2C1=O
 : -9 | 2 | 2.4% | 7.3 | -19 | -0.3
10) O=C(c1[nH]c(C(F)(F)F)nc1-c1ccccc1)N1CCC2(CC1)C(=O)NCN2c1ccccc1
 : -6 | nt | 1.3% | 0.1 | 2 | 2.8
11) CCOC(=O)c1c(C)[nH]c(C)c1C(=O)COC(=O)c1cc(OC)cc(OC)c1
 : -6 | 0 | 1.7% | 0.2 | -6 | -4.7
12) Cc1c(Br)cccc1NC(=O)C1(C)CCN1C(C)C (stereo unspecified)
 : 15 | nt | 5.1% | -1.1 | -3 | -1.4
13) Nc1[nH]c(C(=O)c2ccccc2)c(-c2ccccc2Br)c1C(=O)c1ccccc1
 : -17 | nt | 8.4% | -0.8 | nt | nt
14) Cc1cccc(OCCNC(=O)c2cccc(Oc3ccc(C(F)(F)F)cc3[N+](=O)[O-])c2)c1
 : -15 | -3 | 4.9% | 1.3 | -3 | -0.6
15) Clc1ccc(-c2cn3ncsc3n2)cc1
 : nt | -2 | -0.8% | -0.4 | nt | nt
16) COc1ccc(C2CC(c3c(O)n(C4CCCCC4)c(=O)[nH]c3=O)=Nc3ccccc3S2)cc1 (stereo unspecified)
 : nt | -8 | 2.7% | 1.7 | nt | nt
17) O=C(O)CSc1nnc(-c2ccccc2)o1
 : 14 | -2 | -1.4% | -0.2 | -14 | -5.3
18) COc1ccc(C2CC3(CC(C)(C)NC(=O)N3)Oc3cc(O)ccc32)cc1 (stereo unspecified)
 : 0 | 15 | nt | 0.5 | 7 | 3.0
19) COc1ccc(NC(=O)C2CCCN(S(=O)(=O)c3ccc(C)cc3)C2)cc1OC (stereo unspecified)
 : -23 | -2 | 1.6% | 0.1 | -3 | -3.2
20) Cc1ccc(S(=O)(=O)CC(=O)Nc2nnc(C(C)(C)C)s2)cc1
 : -1 | -5 | 0.0% | 0.0 | -8 | -1.7
21) Cc1ccc(/C=C/C(=O)N2CCN(c3ccc(F)cc3)CC2)o1
 : -9 | -14 | 2.4% | -0.4 | 13 | -1.2
22) Cn1c(=O)c2c(nc(N3CCOCC3)n2CCSc2ncccn2)n(C)c1=O
 : 6 | -8 | 2.9% | 0.0 | -3 | 1.8
23) Cc1cccc(-n2c(SCC(=O)c3c(N)n(C4CC4)c(=O)[nH]c3=O)nnc2N2CCOCC2)c1
 : 3 | 6 | 0.6% | -1.2 | 10 | -1.0
24) NS(=O)(=O)c1ccc(N=Nc2ccc(=O)[nH]c2O)cc1
 : ? | -3 | 1.2% | 0.1 | -12 | -8.0
25) CC(C)(C)c1ccc(-c2nc3cc(NC(=O)c4cccc(Br)c4)ccc3o2)cc1
 : nt | 11 | 0.2% | -0.3 | nt | nt
26) Cc1nc2ccccc2n1CC(O)c1ccccc1 (stereo unspecified)
 : 1 | -6 | 4.4% | 0.1 | -1 | 2.0
27) Cc1cc(C)cc(NC(=O)COC(=O)COc2cccc3c2OC(C)(C)C3)c1
 : 0 | -2 | 4.9% | 0.5 | 11 | -2.4
28) COc1ccccc1CNC(=O)COC(=O)c1c(C)nn(-c2ccccc2)c1Cl
 : -21 | -2 | -1.2% | 4.2 | -15 | -0.9
29) Cc1cc(C)c(NC(=O)c2ccc(S(=O)(=O)N3CCOCC3)cc2)c(C)c1
 : -6 | 15 | 1.9% | -0.1 | 1 | -3.1
30) CCOC(=O)c1cccc(NC(=O)CN(c2ccc(OC)cc2)S(=O)(=O)c2c(C)noc2C)c1
 : -1 | 20 | -0.1% | 0.6 | -29 | -2.1

Entries above containing a tert-butyl group:
Below each SMILES – Six1-Eya2 blk | TRPML1 blocker | PINK1 expr mod | TRPML1 ag | D2 PAM | D2 ag
20) Cc1ccc(S(=O)(=O)CC(=O)Nc2nnc(C(C)(C)C)s2)cc1
 : -1 | -5 | 0.0% | 0.0 | -8 | -1.7
25) CC(C)(C)c1ccc(-c2nc3cc(NC(=O)c4cccc(Br)c4)ccc3o2)cc1
 : nt | 11 | 0.2% | -0.3 | nt | nt

Fetched by compound from the list above:
Below each SMILES – Six1-Eya2 blk | TRPML1 blocker | PINK1 expr mod | TRPML1 ag | D2 PAM | D2 ag
1) CCC(C)NC(=O)C1c2ccccc2C(=O)N(c2ccc(OC)cc2)C1c1ccc(OC)cc1 (stereo unspecified)
 : 8 | 5 | 5.6% | 1.9 | -19 | -4.6
3) Cc1cc(C(=O)N/N=C/c2cccnc2)c2ccccc2n1
 : 0 | 28 | 21% | -1.2 | -5 | -1.8

(list continues)
Below each SMILES – Six1-Eya2 blk | TRPML1 blocker | PINK1 expr mod | TRPML1 ag | D2 PAM | D2 ag
31) Cc1ccc(C(=O)OCC(=O)NCc2cccs2)c(C)c1
 : 4 | -4 | 1.0% | -1.2 | -1 | 6.0
32) COCCCC1CCN(C(=O)C2CCC(=O)N(Cc3cccc(F)c3)C2)CC1 (stereo unspecified)
 : 17 | 11 | -0.5% | -0.9 | -2 | 3.9
33) COC(=O)COc1ccc(C)cc1-n1nc2ccccc2n1
 : 7 | -4 | -1.9% | 0.0 | -2 | -3.6
34) CCOc1ccc(NC(=O)CSc2nccn2C)cc1
 : 6 | -14 | 9.7%[38.3 µM] | 0.5 | -7 | 3.8
35) COc1ccc([C@H](C)NC[C@H](O)c2ccc(O)c(NC=O)c2)cc1
 : 1 | 6 | 1.1% | -0.9 | -17 | -3.4
36) Cc1ccc(S(=O)(=O)N(CC(=O)N/N=C/c2cccc3c2OCCO3)c2ccccc2F)cc1
 : -26 | -18 | -1.1% | -0.4 | -15 | -2.1
37) C=CCn1c(CSc2ccccc2[N+](=O)[O-])n[nH]c1=S
 : -23 | -9 | 0.8% | -0.1 | 6 | -5.5
38) CCNC(=O)COc1cccc2ccccc12
 : 0 | -19 | 2.5% | -1.2 | -5 | -1.6
39) COc1cccc2c1OC1(C)CC2NC(=O)N1Cc1ccccc1 (stereo unspecified)
 : 17 | 13 | 3.4% | 1.2 | -3 | -4.8
40) NS(=O)(=O)c1ccc(CCNC(=O)c2ccc3nc(Cc4ccccc4)oc3c2)cc1
 : nt | 19 | 0.0% | 0.2 | nt | nt
41) OCCC1CN(Cc2cccn2-c2nccs2)CCN1CCc1ccccc1 (stereo unspecified)
 : -19 | -1 | 2.6% | -0.6 | -17 | -1.9
42) CCC1CCCCN1CCCNC(=O)Cn1cnc2sc(C)c(S(=O)(=O)N3CCC(C)CC3)c2c1=O (stereo unspecified)
 : -18 | 3 | 2.1% | -1.2 | -11 | -5.5
43) CCC1(CC)NC(=O)N(CC(=O)OCC(=O)Nc2ncc(Cl)cc2Cl)C1=O
 : 4 | 0 | -0.5% | -0.3 | -4 | 1.8
44) CC(C)NC(=O)NC(=O)COC(=O)c1cccc(S(=O)(=O)N2CCCCC2)c1
 : -1 | 12 | 0.4% | 2.4 | -14 | -0.9
45) Cc1ccc(C)c(NC(=O)CSc2nnc(-c3ccccc3C)o2)c1
 : 5 | 35 | 0.5%[38.3 µM] | 1.6 | -15 | -2.5
46) CC1CCc2c(C(=O)Nc3nccs3)csc2C1 (stereo unspecified)
 : -7 | 0 | ? | -0.1 | -10 | -4.3
47) CC(C(=O)Nc1ccc(F)cc1Cl)N1CCN(S(=O)(=O)c2cccs2)CC1 (stereo unspecified)
 : 3 | 4 | 2.6% | 4.7 | 1 | 6.8
48) CC(=O)n1nc(-c2ccc(C)cc2)nc1NCc1ccc(F)cc1
 : 6 | 17 | 9.9% | 2.3 | -1 | -2.0
49) COc1cccc(NC(=O)N2CCC(n3nnc4ccccc43)CC2)c1
 : -6 | 13 | -0.4% | -1.0 | -7 | 4.6
50) CC(=O)c1c(C)[nH]c(C(=O)NCCc2cccc(C)c2)c1C
 : -9 | 0 | 0.6% | -1.2 | -10 | -1.5
51) COC(=O)C1=C(C)N=C2SC(C#N)=C(N)N2C1c1cc(OC)c(OC)c(OC)c1 (stereo unspecified)
 : 1 | -3 | 0.5% | 0.3 | 1 | 3.4
52) Nn1c(SCC(=O)Nc2nccs2)nnc1-c1cccnc1
 : -10 | -24 | 1.3% | -0.3 | -2 | -3.9
53) CN(C)c1ccc(C=Nc2ccc(N(C)C)cc2)cc1
 : ? | 12 | 2.8% | -0.9 | 18 | 6.9
54) COc1ccc(S(=O)(=O)Nc2cc(C)ccn2)cc1
 : 22 | 1 | 0.3% | -0.6 | -2 | -2.5
55) COc1ccc(NS(=O)(=O)c2cc(NC(=O)CNC(=O)c3ccc(C)s3)ccc2Cl)cc1
 : -25 | ? | -0.7% | 0.5 | -10 | -2.7
56) CC(=O)N=C1C=CC(=CN(O)C(C)(C)Cc2ccccc2)C=C1
 : -1 | 18 | 0.9% | -0.2 | -34 | -0.7
57) CC1=C(C(=O)N2CCOCC2)CC(CC(=O)NCc2ccco2)C(=O)N1Cc1ccc(C(C)(C)C)cc1 (stereo unspecified)
 : -17 | 13 | 2.0% | -0.3 | 0 | -3.7
58) Cc1ccc(C(=O)CCC(=O)NC2=NCCS2)cc1
 : -7 | -1 | -0.7% | -0.7 | -3 | -3.7
59) CS(=O)(=O)c1ccc(C(=O)NC2CCOC2=O)cc1 (stereo unspecified)
 : 1 | 9 | 45%[38.3 µM] | -0.4 | -5 | -2.5
60) O=C1OCCN1C(=O)[C@H]1[C@H](c2ccc([N+](=O)[O-])cc2)C(c2ccccc2)=NN1c1ccc(Br)cc1
 : -11 | 33 | 1.5% | 0.1 | 0 | 1.8
61) Cc1cc(F)ccc1NC(=O)CCS(=O)(=O)c1cccc2nsnc12
 : nt | 0 | -0.5% | -0.5 | nt | nt

Just TRPML1 blocker and TRPML1 ag (two entries from above):
cpd	Molecule	TRPML1 blocker	TRPML1 ag
44	CC(C)NC(=O)NC(=O)COC(=O)c1cccc(S(=O)(=O)N2CCCCC2)c1	12	2.4
53	CN(C)c1ccc(C=Nc2ccc(N(C)C)cc2)cc1	12	-0.9
